Assay outcomes: PubChem BioAssay, Johns Hopkins Ion Channel Center
Kir21 inh – inhibitors of mouse Kir2.1 inward-rectifier potassium channel; Inward rectifier potassium channel 2 (Mus musculus), P35561; HEK293-Kir2.1, FluxOR thallium flux fluorescence; hits give low values; B-score at 10 µM; actives 0.85% (n = 310,000);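 active = fluorescence ratio B-score at or below minus 3 SD of library scores, with starting-brightness B-score within 2 SD, cut at about -4.2 in these data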;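 note: channel flux triggered by added potassium and thallium sulfate stimulus; B-score of peak minus minimum fluorescence over baseline after thallium stimulus; more negative B-score means stronger Kir2.1 block with less thallium influx; some compounds called inactive have numbers as strong as hits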
Target sequence (P35561 whole entry, looked up): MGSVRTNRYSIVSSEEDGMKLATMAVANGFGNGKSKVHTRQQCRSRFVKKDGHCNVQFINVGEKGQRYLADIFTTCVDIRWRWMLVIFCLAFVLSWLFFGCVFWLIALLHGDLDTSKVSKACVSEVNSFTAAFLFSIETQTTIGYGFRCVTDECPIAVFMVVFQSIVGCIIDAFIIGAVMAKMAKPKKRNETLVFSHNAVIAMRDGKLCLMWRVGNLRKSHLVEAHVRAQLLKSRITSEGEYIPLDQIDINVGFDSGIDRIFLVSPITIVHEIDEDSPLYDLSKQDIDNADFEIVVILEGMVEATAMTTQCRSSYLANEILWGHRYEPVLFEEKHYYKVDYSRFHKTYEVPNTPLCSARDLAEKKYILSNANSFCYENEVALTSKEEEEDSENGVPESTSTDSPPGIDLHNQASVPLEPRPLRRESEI
* marks the source's active call; other numbers are inactive results.

SMILES	Kir21 inh
O=C(NCc1cccs1)C1CCN(S(=O)(=O)N2CCCC2)CC1	-0.31
CC(=O)c1ccc(NS(=O)(=O)c2ccc3c(c2)N(C(C)=O)CCO3)cc1	-1.4
O=S(=O)(Cc1ccccc1)Nc1cccc(Br)c1	-0.06
CCOc1ccc(N(CC)S(=O)(=O)c2cccc3nsnc23)cc1	-1.1
CC(C)c1ccc(NC(=O)CN2CCN(C(=O)C3CCCO3)CC2)cc1 (centres undefined)	0.86
Cc1nc(CN2CCN(C(=O)c3ccc(C(C)(C)C)cc3)CC2)cs1	-0.65
CC(Oc1cc2oc(=O)c3c(c2cc1Cl)CCC3)C(=O)N1C[C@H]2C[C@@H](C1)c1cccc(=O)n1C2 (some centres undefined)	-1.6
COC(=O)N1CC=CC1(C)C(=O)NCc1cc(F)cc(C(F)(F)F)c1 (centres undefined)	0.05
O=C(N/C(=C\c1ccc(Cl)cc1)C(=O)N1CCOCC1)c1ccc([N+](=O)[O-])cc1	0.45
CCc1ccc(OCC2c3cc(OC)c(OC)cc3CCN2C(=S)NC)cc1 (centres undefined)	-2.5
O=C(O)c1ccccc1Nc1ccc([N+](=O)[O-])cc1	0.47
O=C(COC(=O)c1ccc(NS(=O)(=O)c2cccs2)cc1)NCc1ccco1	-1
c1ccc2c(c1)nc(-c1ccncc1)n1nnnc21	-0.05
Cc1ccc(SCC(=O)N2CC(C)OC(C)C2)cc1 (centres undefined)	0.54
Cc1ccc(C(=O)NCCc2nnc3ccc(SCC(=O)N4CCCC4)nn23)cc1	-2.5
Fc1ccc(C2CCCN2Cc2nc(-c3cnccn3)no2)cc1 (centres undefined)	0.68
O=C(NC1CCCC1)C(c1cccnc1)N(Cc1ccc(F)cc1)C(=O)c1csnn1 (centres undefined)	-0.23
CC(=O)c1cc(-c2ccccc2)[nH]c1N1CCOCC1	0.54
CCOc1cc(CNc2ccc(S(N)(=O)=O)cc2)ccc1OCC(=O)NC(C)(C)C	1.4
Cc1cc(=O)oc2c3c(cc(OCC(=O)NC4CC4)c12)OC(C)(C)CC3	0.7
Cc1nc2sccn2c(=O)c1S(=O)(=O)N1CCN(c2cccc(C(F)(F)F)c2)CC1	0.81
COc1ccc(/C=N/n2cnc3c([nH]c4ccccc43)c2=O)cc1COc1ccccn1	0.61
O=C(C1=C(O)C(=O)N(c2ncccn2)C1c1ccc(Cl)c(Cl)c1)c1ccco1 (centres undefined)	-0.66
CCC(=O)Nc1ccc(NCc2ccc(-c3ccccc3)cc2)cc1	-1.9
COc1ccc(C2CC2/C(C)=N/OC(=O)C2CC2)cc1 (centres undefined)	1.2
Cc1cc(OCC(=O)O)c2ccccc2n1	0.07
O=C(Nc1ccccc1NC(=O)c1ccco1)c1ccco1	0.14
O=[N+]([O-])c1ccc(-c2ccc(S(=O)(=O)N3CCOCC3)cc2)cc1	0.44
Cc1cc(C(=O)N/N=C/c2cccc(OC(=O)c3ccco3)c2)n[nH]1	-0.13
COc1cc(Br)cc(/C=N/N(CCO)C2=NS(=O)(=O)c3ccccc32)c1OC	0.01
Cc1c(/C=N/NC(=O)CNc2ccccc2)c2ccccn2c1C(=O)c1ccncc1	0.11
Cc1ccc(N2C(=O)N(CC(=O)Nc3ccc(C)c(C)c3[N+](=O)[O-])C(=O)C2C)cc1 (centres undefined)	0.53
CC1(C)CC(=O)C/C(=N/NC(=O)COc2ccc(Cl)cc2Cl)C1	-0.26
CC(=O)O[C@H]1C[C@@]2(C)[C@@H](C[C@@H](O)[C@H]3[C@@]4(C)CC[C@@H](O)[C@@H](C)C4CC[C@@]32C)/C1=C(\CCC=C(C)C)C(=O)O (some centres undefined)	0.26
FC(F)(F)c1cnc(NNC(=S)Nc2ccccc2Cl)c(Cl)c1	-0.42
Cc1cnc(C(=O)OCC(=O)N2CCc3ccccc3C2)cn1	1.4
COc1cccc(N(C(=O)Cn2nnc(-c3cccs3)n2)C(C(=O)NC2CCCCC2)c2ccncc2)c1 (centres undefined)	0.52
O=C(Nc1nccs1)c1ccc(N2C(=O)[C@@H]3[C@H](C2=O)[C@H]2C=C[C@@H]3C2)cc1	0.08
Cc1ccc(-n2c(SCC(=O)N3CCOCC3)nc(O)cc2=O)cc1	0.33
COc1cc(C2C(C(=O)OC(C)C)=C(C)Nc3[nH]c(=O)[nH]c(=O)c32)ccc1O (centres undefined)	1.1
CCOC(=O)c1cnc2c(C)c(Cl)ccc2c1N1CCN(CC)CC1	-0.43
CC1(C)CC(=O)C2=C(C1)N(c1ccc(F)cc1)C(=O)C2(NC(=O)c1ccccc1F)C(F)(F)F (centres undefined)	0.01
CCC(C)(NC(=O)CNC(C)=O)C(=O)NC1CCCCC1 (centres undefined)	0.17
CCCCOc1ccc(C(=O)OCC(=O)Nc2cc(C)c(C)cc2[N+](=O)[O-])cc1	0.4
COc1cc(CNCCc2ccccc2)ccc1OCC(N)=O	3.2
O=c1nc2n(c3ncccc13)CCCCC2	1.1
CC(C)N1C(=O)CCC1C(=O)NCc1ccco1 (centres undefined)	-0.2
Cc1noc(C)c1COc1ccccc1C(=O)N1CCN(S(=O)(=O)c2ccccc2C(F)(F)F)CC1	1.5
CC(=O)c1c(C(=O)O)c2ccccc2[nH]c1=O	-0.28
CCC1(C)Cc2ccccc2-c2nc(NCCO)n(-c3ccc(C)cc3)c(=O)c21 (centres undefined)	0.38
COC(=O)c1nn(-c2ccc3c(c2)OCO3)cc1O	0.22
COc1cccc(-c2cc(C(F)(F)F)nc(-n3cc(Cl)cn3)n2)c1	0.17
CC(=O)c1sc(NC(=O)CCS(=O)(=O)c2ccc(Cl)cc2)nc1C	0.17
CC(C)Cn1c(N)c(C(=O)COC(=O)c2ccc(O)cc2)c(=O)n(C)c1=O	1.1
CC1=NN(C(=O)Cc2ccc(C)cc2)C(O)(c2cccnc2)C1 (centres undefined)	-0.77
CCN1CCN(C(=O)/C=C/c2ccc3c(c2)OCO3)CC1	-1.3
O=S(=O)(c1cccs1)N1CCC(Cc2ccccc2)CC1	0.06
O=C(O)c1cc(C(=O)O)c(-c2ccccc2)c(C(=O)O)c1	-0.21
CCc1c(C)sc(NC(=S)NC(C)C2CCCO2)c1C(=O)OC (centres undefined)	-0.09
Cc1ccc(C(=O)CSc2n[nH]c(C)n2)cc1	0.02

Further compounds follow:
SMILES	Kir21 inh
C/C(CC(=O)Nc1cccc(C(F)(F)F)c1)=N\NC(=O)C(=O)NCC(C)C	1.2
CC(C)CC(=O)Nc1nnc(SCC(=O)Nc2nccs2)s1	0.16
O=C(c1ccccc1)c1nc2ccccc2[nH]c1=O	0.78
O=c1[nH]cnc2c1c(-c1ccccc1)cn2-c1ccc(F)cc1	2.1
Cn1nnnc1SCc1ccc(CSc2nnnn2C)cc1	-0.41
COc1cc(C(=O)NCCSc2ccccc2)cc(OC)c1OC	2.3
COc1ccc(/C(C)=N\O)cc1OC	0.44
CCOc1cc(NC(=S)NCCc2ccccc2)c(OCC)cc1NC(C)=O	0.13
Cc1ccc(-n2cnc(=O)c3cccnc32)cc1	3.4
CCC1=C(OC(=O)N(CC)CC)N2C(=O)OC(=NCCc3c[nH]c4ccccc34)[C@]2(C)[C@H]2C1=CC[C@H]1C(=O)N(CC)C(=O)[C@H]12	0.95
CNC(=O)CSc1nnc(COc2ccc(Cl)cc2)n1CCOC	-0.45
CCC(C)[C@H](NC(=O)Nc1cccc(Br)c1)C(=O)OC (some centres undefined)	-1.5
Cc1c(S(=O)(=O)N2CCOCC2)c(=O)n(C)c(=O)n1C	0.4
CCC(=O)Nc1nnc(-c2ccc(Cl)s2)o1	0.66
O=C(OCC(=O)N1CCCC1)c1cc(Br)ccc1Cl	-1.1
Cc1ccc(C2C(C(=O)c3sc(C)nc3C)=C(O)C(=O)N2CCN2CCOCC2)o1 (centres undefined)	-0.44
CCC(C)NC(=O)CC(C)C (centres undefined)	-2.1
O=C(CN1CCN(CC(=O)Nc2ccc(Cl)cc2)CC1)Nc1ccc(F)cc1	1.2
Cc1cccc(/C=N/NC(=O)c2ccncc2)n1	0.48
COc1ccccc1Nc1nc2c(s1)CCC2	0.34
Cc1ccc2nc(C3CCCN3Cc3nc(CCC(C)C)no3)[nH]c2c1 (centres undefined)	0.02
Cc1cc(Cl)ccc1NC(=O)Cn1cncn1	0.26
CCOC(=O)c1c(-c2ccc(C)o2)csc1NC(=S)NC(=O)c1ccccc1Br	-1.9
Cc1ccn2c(c1)nc(=O)c1cc(S(=O)(=O)N3CCC(C)CC3)ccc12	0.8
COCCn1c(SCC(=O)N2CCc3ccccc3C2)nc2ccccc2c1=O	0.04
COc1ccc2c(c1)C(=NNC(=O)c1ccccn1)c1cc(OC)ccc1-2	2.3
O=S(=O)(Nc1ccc(O)c2ccccc12)c1ccc(OC(F)(F)F)cc1	0.82
CCCOc1ccc(C(CC(=O)O)NS(=O)(=O)c2ccc(NC(C)=O)cc2)cc1 (centres undefined)	-0.43
Fc1ccccc1CSc1nc2ncc(Br)cc2[nH]1	0.01
Brc1ccc(-c2csc(N3CCc4ccccc4C3)n2)cc1	-0.44
O=C(NCc1cccc(Cl)c1)c1ccco1	-0.21
O=C(NCc1ccco1)Nc1ccc(Br)cc1Cl	1.2
Cc1cc(C)c(N2C(=O)CCCC2=O)c(Cl)c1	-1.1
CCN(CC)S(=O)(=O)c1cccc(C(=O)Nc2ccccc2)c1	-0.65
COc1ccc(S(=O)(=O)N(CCC(N)=O)Cc2ccco2)cc1OC	-2.3
COc1ccccc1/C=C/C(=O)N1CCC(c2ccccc2)C1 (centres undefined)	0.14
CC(C)CC(NC(=O)C1CCC(C)CC1)C(=O)NCc1cccnc1 (centres undefined)	-1.2
COc1ccc(N2CCN(C(=O)Cc3ccc(S(=O)(=O)N4CCOCC4)s3)CC2)cc1	1.4
Clc1ccc(C2=Nn3c(nnc3-c3cccnc3)SC2)s1	0.4
COc1ccc(C)cc1NC(=O)C1COc2ccccc2O1 (centres undefined)	-0.17

As entered above.
Under Kir21 inh, Fc1ccccc1CSc1nc2ncc(Br)cc2[nH]1 is listed with 0.01
Under Kir21 inh, COc1ccc(S(=O)(=O)N(CCC(N)=O)Cc2ccco2)cc1OC is listed with -2.3

Next section
SMILES	Kir21 inh
C=CCn1c(SCc2ccccc2F)nc2cc(C(=O)O)ccc2c1=O	1.6
O=C(Nc1cccc([N+](=O)[O-])c1)Nc1ccc2c(c1)CCC2	-0.38
O=C(c1c[nH]c2ccccc12)N1CCN(c2ccccc2)CC1	-0.17
O=C(NCCc1cccs1)c1cccs1	0.67
Cc1nc(CSc2nnc3scc(-c4ccc(Cl)cc4)n23)cs1	-1.3
Clc1ccc(-c2nnc3n2CCCCC3)cc1	-0.49
CC(=O)c1ccc(NC(=O)CSc2nnc(-c3ccncc3)o2)cc1	2.7
Cn1c(COc2ccccc2)nc2ccccc21	-0.12
Cc1cccc(OCc2nnc(SCC(=O)N3c4ccccc4CC3C)n2C)c1C (centres undefined)	-1.1
CN(C(=O)CCNC(=O)N1CC(=O)Nc2ccccc21)C1CCCCC1	-1
CNS(=O)(=O)c1cccc(C(=O)OCC(=O)Nc2ccc(N3CCCCC3)cc2)c1	-0.15
C=CCNC(=S)Nc1cccc2[nH]ncc12	0.29
COc1cccc2c(=O)c(C/C=C(/C)Cl)c(C)[nH]c12	1.1
O=C(NNC(=O)c1ccc(Cl)c(Cl)c1)c1cccnc1	-1.4
COc1ccc(C2Nc3ccccc3C(=O)N2c2ccccc2)cc1Cn1cc([N+](=O)[O-])cn1 (centres undefined)	0.79
O=C(O)CCCC(=O)N1CCC(C(O)(c2ccccc2)c2ccccc2)CC1	0.27
CNC(=O)COC(=O)c1cccc(S(=O)(=O)N2CCN(c3ccc(F)cc3)CC2)c1	-0.72
Cc1ccn(CC(=O)N2CCCC(N3CCN(Cc4ccc5c(c4)OCO5)CC3)C2)n1 (centres undefined)	-0.05
CC(=O)N1CCN(c2cc3c(cc2F)c(=O)c(C(=O)O)cn3C2CC2)CC1	-0.77
C=CCn1c(SCC(=O)Nc2cc(C)c(Cl)cc2OC)nnc1-c1ccco1	-0.18

15 entries already listed, sorted by heavy-atom count, smallest number first:
SMILES	Kir21 inh
O=C(NCCc1cccs1)c1cccs1	0.67
C=CCNC(=S)Nc1cccc2[nH]ncc12	0.29
Clc1ccc(-c2nnc3n2CCCCC3)cc1	-0.49
Cn1c(COc2ccccc2)nc2ccccc21	-0.12
COc1cccc2c(=O)c(C/C=C(/C)Cl)c(C)[nH]c12	1.1
O=C(NNC(=O)c1ccc(Cl)c(Cl)c1)c1cccnc1	-1.4
O=C(Nc1cccc([N+](=O)[O-])c1)Nc1ccc2c(c1)CCC2	-0.38
O=C(c1c[nH]c2ccccc12)N1CCN(c2ccccc2)CC1	-0.17
CC(=O)c1ccc(NC(=O)CSc2nnc(-c3ccncc3)o2)cc1	2.7
CN(C(=O)CCNC(=O)N1CC(=O)Nc2ccccc21)C1CCCCC1	-1
CC(=O)N1CCN(c2cc3c(cc2F)c(=O)c(C(=O)O)cn3C2CC2)CC1	-0.77
O=C(O)CCCC(=O)N1CCC(C(O)(c2ccccc2)c2ccccc2)CC1	0.27
CNS(=O)(=O)c1cccc(C(=O)OCC(=O)Nc2ccc(N3CCCCC3)cc2)c1	-0.15
Cc1ccn(CC(=O)N2CCCC(N3CCN(Cc4ccc5c(c4)OCO5)CC3)C2)n1 (centres undefined)	-0.05
COc1ccc(C2Nc3ccccc3C(=O)N2c2ccccc2)cc1Cn1cc([N+](=O)[O-])cn1 (centres undefined)	0.79

(next part)
SMILES	Kir21 inh
COc1cc(NC(=O)CSCc2ccc(Cl)cc2Cl)c(C(=O)O)cc1OC	1.7
Cc1[nH]c(=O)[nH]c(=O)c1S(=O)(=O)N(C)Cc1ccccc1	-0.19
Cc1ccc2[nH]c(C(=O)O)c(NC(=O)c3ccccc3[N+](=O)[O-])c2c1	0.38
O=C(NCc1ccc2c(c1)OCO2)c1ccc2c(c1)OCCO2	1.1
O=C(Nc1ccccc1)C1=C[C@H](c2ccc(Br)cc2)C[C@H](OCc2ccc(CO)cc2)O1	0.29
O=C1COc2ccc(C(=O)C[n+]3cccc(O)c3)cc2N1	3.3
Cc1nnc(SCC(=O)NCc2ccc3c(c2)OCO3)s1	1.3
O=C(O)c1cc2nc(-c3ccc(F)cc3)cc(C(F)(F)F)n2n1	0.26

Some of the compounds tested, and most or all hits are left out here.
